Beta cell apopt: inhibitors of cytokine-induced beta cell apoptosis, primary screen, luminescence; INS-1E cytokine-induced death, ATP luminescence, 48 h; percent of positive-control rescue, neutral wells zero; protection from apoptosis, % (no concentration beside the values); 0.8% of 300,000 active; AID 435005, 2010;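 active = all replicates at 75% or more, or half of them and the mean; inconclusive = half reach 75% but not the mean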;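 also: 0% = cytokine-treated negative control wells and 100% = positive control rescue; higher means more ATP so stronger rescue from cytokine killing; wells of about 40 µL received 100 nL stock; the first replicate is given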
Bfl-1 A1 inh: caspase 3/7 activation in MEF A1-2A-BIM cells, primary screen, A1 inhibitor project, cell-based, luminescence, HTS; caspase activation, % (no concentration beside the values); 0.066% of 330,000 active; Caspase-Glo 3/7 luminescence, 3 h; percent of clofoctol response, vehicle zero;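 active = over half of replicate activation scores above 10%, or exactly half above 10 with the replicate mean above 10; inconclusive = replicate mean below 10 yet half the replicates above 10; inactive = over half of replicates below 10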;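 also: wells of about 30 µL received 50 nL stock; many hits fall short of the cut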
Vif TR-FRET: inhibitors of Vif binding to APOBEC3G peptide, primary screen, biochemical, TR-FRET, GST-Vif 1-94, biotin-A3G peptide, dose response retest (AID 1117319) | 0.57% of 260,000 active | TR-FRET GST-Vif / biotin-A3G peptide binding; higher % means a stronger effect; test concentration not given here; strong numbers were not always called active | inhibition, %, or IC50 in µM where a hit was titrated | Virion infectivity factor (Human immunodeficiency virus type 1 group M subtype B (isolate …;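 active = above the screen mean plus three standard deviations and confirmed in dose response; inconclusive = results disagree or hit not tested in dose response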;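 also: Vif residues 1-94 fused to GST binding biotinylated APOBEC3G peptide 110-148; 0% = full assay without inhibitor and 100% = GST in place of GST-Vif; retest series ran down from 100 µM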
Calb FLC: C. albicans growth inhibition with fluconazole, primary screen, CaCi-2 strain, Alamar Blue fluorescence | C. albicans CaCi-2 (fluconazole-resistant clinical isolate) + fluconazole, 48 h | growth inhibition, % (test concentration not listed) | 0.57% of 300,000 active | AID 1979, 2009;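 active = most replicates above 75%; inconclusive = exactly half above 75%; inactive = most below 75%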;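 also: all wells also contain fluconazole at 8 µg/ml as a sub-toxic cotreatment; 0% = median of DMSO wells and 100% = median of geldanamycin control wells; wells of about 8 µL received 7.5 nL stock; the first replicate is given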
T cruzi repl: inhibitors of intracellular T. cruzi growth, primary screen, luminescence, NIH3T3 host cells. 1.4% of 300,000 active. inhibition, % (no concentration beside the values). T. cruzi beta-gal in NIH3T3, 90 h;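 active = mean inhibition across valid replicates above about 55%, limit read from the data; inconclusive = mean below that limit but half or more replicates reach it; inactive = mean below it, under half of replicates reach it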;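 also: signal also drops with host cell toxicity which is not excluded here; 0% = plate median of DMSO wells and 100% = zero luminescence signal; higher percent means less beta-gal luminescence so fewer parasites; stock transfer was 50 nL into about 50 µL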
RanGTP-Impb inh: inhibitors of RanGTP-importin-beta interaction, primary screen, biochemical, FRET, CFP-Ran, YFP-importin-beta, homogeneous | cell-free CFP-Ran/YFP-importin-beta FRET ratio | Ran GTPase (GTP-bound) - importin-beta complex | inhibition, % (concentration not given with the values) | AID 2216, 2009 | 1.1% of 300,000 active;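 active = most replicates above 15%; inconclusive = exactly half above 15%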;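 also: 0% = DMSO wells and 100% = Ran loaded with GDP instead of GTP; wells of about 40 µL received 100 nL stock; the first replicate is given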
Ecoli rRNA inh: reduced GFP signal of wild-type E. coli, primary screen, bacterial rRNA inhibitor project, GFP/RFP fluorescence, OD600, single point | E. coli WT GFP vs humanized-ribosome RFP mutants, 24 h; active compounds read low; DMSO median 0, no signal -100 | GFP signal change (wild-type ribosome), % (no concentration beside the values) | 1.6% of 350,000 active;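 active = significant combined selectivity score with lowered wild-type GFP, culture density cut under 30%, mutant RFP and density less affected; inactive = any of these conditions unmet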; also: one replicate is shown; some compounds called inactive have numbers as strong as hits
AF4-AF9 inh: inhibitors of AF4 peptide binding to AF9, primary screen, biochemical, AlphaScreen, biotin-AF4 peptide, FLAG-AF9, single point; Protein AF-9 (Homo sapiens), P42568; inhibition, % at 10 µM; 0.47% of 350,000 active; AID 651704, 2012;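 active = every replicate reaching a set inhibition limit, whatever the replicate mean, cut at about 25% in these data; inconclusive = mean inhibition reaches that limit but some replicates miss it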;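 also: 0% = plate neutral control median and 100% = total signal loss; the record names both 10 and 1 µM as test concentration; the first replicate is given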
Target sequence (P42568 whole entry, looked up): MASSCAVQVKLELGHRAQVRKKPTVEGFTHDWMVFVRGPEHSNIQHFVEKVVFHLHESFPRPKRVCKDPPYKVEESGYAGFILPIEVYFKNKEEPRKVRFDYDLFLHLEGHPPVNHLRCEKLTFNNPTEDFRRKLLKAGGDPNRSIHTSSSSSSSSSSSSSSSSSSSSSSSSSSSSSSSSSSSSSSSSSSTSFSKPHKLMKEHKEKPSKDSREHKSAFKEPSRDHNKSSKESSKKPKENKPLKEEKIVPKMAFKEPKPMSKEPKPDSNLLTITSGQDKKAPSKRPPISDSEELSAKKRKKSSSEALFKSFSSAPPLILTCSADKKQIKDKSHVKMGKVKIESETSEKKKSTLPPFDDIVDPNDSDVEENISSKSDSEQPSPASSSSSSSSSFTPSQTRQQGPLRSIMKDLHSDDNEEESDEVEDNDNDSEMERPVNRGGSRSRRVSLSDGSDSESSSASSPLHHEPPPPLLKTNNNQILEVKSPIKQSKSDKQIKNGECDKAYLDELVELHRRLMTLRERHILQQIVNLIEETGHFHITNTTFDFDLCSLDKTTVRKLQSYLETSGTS
Ecoli rRNA inh OD600: recorded beside Ecoli rRNA inh, whose call it bears; OD600 change, %; measured here: OD600 growth;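 optical density of the mix in the first replicate; 0 = DMSO median and -100 = no signal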
Ecoli rRNA inh RFP: second read-out of Ecoli rRNA inh, no call of its own (marks repeat the call); RFP signal change, %; measured here: RFP humanized mutant strains;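 first replicate; 0 = DMSO median and -100 = no signal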
Active calls of the source: *; ? = inconclusive; . = not tested or not shown.

structure,Beta cell apopt,Bfl-1 A1 inh,Vif TR-FRET,Calb FLC,T cruzi repl,RanGTP-Impb inh,Ecoli rRNA inh,Ecoli rRNA inh OD600,Ecoli rRNA inh RFP,AF4-AF9 inh
N#Cc1c(SCC(=O)Nc2ccccc2C(F)(F)F)sc2c(O)cc(=O)[nH]c12,-0.3,0.1,.,-8.8,-6.2,6.3,7.6,4.7,1.2,-0.8
Cc1c(C(c2cccc(O)c2)c2c(C)n(C)n(-c3ccccc3)c2=O)c(=O)n(-c2ccccc2)n1C,-0.8,-0.6,0.8%,0.1,-2.1,-2.0,.,.,.,.
CCCC(=O)Nc1ccc(S(=O)(=O)Nc2cc(OC)nc(OC)n2)cc1,-4.5,3.2,.,-4.7,-8.7,0.9,3.9,11.4,-3.4,-7.3
CCCCN(CC)C(=O)c1cc2cc3ccc(OC)cc3nc2o1,2.1,-8.6,6.3%,-18.6,3.1,58.6*,.,.,.,.
Cc1ccc(C(=O)NCCc2csc(-c3cccnc3)n2)cc1,-1.4,-0.4,3.3%,-6.6,10.3,0.5,-8.0,-5.2,-2.0,-3.0
S=c1[nH]nc(Cc2noc3ccccc23)n1-c1ccc(Cl)cc1,-3.4,1.1,-5.1%,2.3,7.3,1.0,-15.1,-14.1,-2.9,-5.4
Cc1cc(C)nc(NS(=O)(=O)c2ccc(NC(=O)CSc3nc(-c4ccccc4)c(C#N)c(=O)[nH]3)cc2)n1,.,2.3,-5.6%,-0.3,5.2,-1.3,6.0,1.9,5.4,-1.6
Cc1ccc(S(=O)(=O)N2[C@@H](c3ccc(Cl)cc3)C(C(=O)O)=CC[C@H]2c2cccs2)cc1,1.0,0.2,.,.,.,.,-29.1*,-15.5*,-6.4*,-20.4
COC(=O)[C@H](CCSC)NC(=O)c1cccnc1SC,-7.4,-1.8,.,10.2,11.9,0.6,5.0,4.2,-4.2,.
O=C(O)C1CCN(c2ccc(S(=O)(=O)N3CCC(C(=O)O)CC3)cc2[N+](=O)[O-])CC1,-10.3,-0.6,.,-8.5,-17.6,7.0,-0.7,4.8,-1.6,-0.8
O=C(NCC(=O)N(c1cccnc1)C(C(=O)NC1CCCC1)c1ccc(F)cc1)c1ccco1 (centres undefined),-3.4,-0.5,7.9%,8.5,-10.6,-2.1,32.5,29.2,3.0,-3.0
COc1cc(CN2CCc3ccccc3C2)cc([N+](=O)[O-])c1O,2.9,0.5,-4.4%,-3.0,-0.3,-1.8,2.0,1.1,-2.4,2.1
Cn1cc(CCNC(=O)CCc2nnc(CCCCc3ccccc3)o2)cn1,-1.6,0.0,-4.7%,32.4,-0.4,-0.1,5.9,7.0,3.6,-0.5
COc1ccc(C(=O)Nc2ccc(S(=O)(=O)NC(C)C)cc2)cc1,0.1,0.1,-1.6%,?,-3.9,3.2,.,.,.,.
O=C(CSc1nnc(C2CC2)n1-c1ccccc1)NCCc1ccc(F)cc1,-1.9,0.3,?,-5.0,-4.8,-1.8,.,.,.,.
O=C(C1CCCN(S(=O)(=O)c2cccc3nsnc23)C1)N1CCc2ccccc21 (centres undefined),3.1,?,12.8%,1.4,0.5,-3.7,.,.,.,.
CCOC(=O)C1(CCc2ccccc2)CCN(C(=O)c2occc2C)CC1,-1.9,-0.9,13.2%,24.5,26.9,?,-38.7,-68.3,-7.5,-4.8
O=C(Cn1nnc(-c2ccc(CN3CCOCC3)cc2)n1)N1CCCc2ccccc21,-1.5,0.1,-1.3%,4.8,16.5,-1.2,.,.,.,.
Cc1cc(NC(=O)C2CC(=O)N(c3ccccc3Cl)C2)no1 (centres undefined),.,-0.6,.,-2.8,-5.8,2.0,6.5,7.9,3.0,-0.3
O=C(N/N=C/c1ccc(C(F)(F)F)cc1)c1ccncc1,3.5,-0.6,4.4%,15.3,15.0,-1.0,17.4,21.0,1.5,-0.6
CCOCC(=O)N1CCN(c2cccc(Cl)c2)CC1,-6.1,-0.1,-4.0%,7.5,-5.1,-3.9,1.6,-0.8,-6.7,-0.5
COc1ccc(C(=O)Nc2c(Cl)cc(Cl)cc2C(=O)NCCN2CCOCC2)cc1,5.1,0.4,-5.6%,5.2,-1.2,-0.2,6.8,10.3,1.7,.
Cn1ccsc1=NC(=O)c1cc(S(=O)(=O)N2CCOCC2)ccc1Cl,-0.3,0.2,-4.3%,3.4,0.0,-2.3,4.6,-5.3,2.3,-0.7
Cc1c(N2C(=O)c3ccc(F)cc3C2=O)c(=O)n(-c2ccccc2)n1C,-2.5,-0.5,-5.7%,-2.3,-4.5,0.6,.,.,.,.
O=C(CSc1nc(-c2ccccc2)cs1)NCCCN1CCCC1=O,-1.7,-1.5,.,.,.,.,1.6,4.6,-1.9,-2.2
C[C@H]1CN(S(=O)(=O)c2c(F)cccc2F)CCN1S(=O)(=O)c1ccc2c(c1)OCCO2,3.3,0.9,.,.,.,.,-13.4,-17.3,7.2,1.0
Cc1ccc(Nc2c3c(nc4ccccc24)CCC3)cc1,82.4*,0.2,-8.7%,70.5,39.2,2.2,-21.1,-54.1,3.3,7.4
O=C(Nc1nnc(-c2ccc(Cl)cc2)o1)C1CCCCC1,-0.3,-0.4,.,2.2,-13.0,-0.4,-3.3,2.5,4.2,-0.5
COC(=O)c1c(NC(=O)c2ccccc2)sc2c1CC(C)(C)OC2,-1.9,0.5,14.0%,-7.4,-17.1,2.6,.,.,.,.
Cn1c2c(c(=O)n(C)c1=O)C(C(F)(F)F)(C(F)(F)F)N=C(c1ccccc1Cl)N2,16.6,-0.4,2.2%,2.3,5.1,4.2,.,.,.,.
CCCSc1nn2c(=O)c3ccccc3nc2s1,-1.5,-5.2,21.0%,3.5,-13.7,-8.5,.,.,.,.
CCN(CC)CCNC(=O)c1ccc(NC(=O)/C=C/c2cc(OC)c(OC)c(OC)c2)cc1,4.8,0.3,-16.0%,66.1*,-6.3,-0.7,.,.,.,8.4
COc1ccc(Nc2nc(NN)nc(Nc3ccc(OC)cc3)n2)cc1,.,1.8,.,8.7,4.4,-4.1,-1.0,10.3,0.6,4.6
CCOc1ccc(S(=O)(=O)NCCC(=O)Nc2ncccc2C)cc1,-2.8,-0.5,1.3%,2.9,-4.1,2.6,8.0,15.5,1.6,-16.5
O=C1c2ccccc2C(=O)N1CCn1c(=O)oc2ccccc21,-7.5,-0.3,-1.6%,-13.4,-0.9,1.5,15.9,6.8,-4.0,11.8
CCOC(=O)C1=Nc2ccccc2C1=[N+]=[N-],107.0*,-0.7,3.2%,-2.4,29.9,-1.3,.,.,.,.
O=C(Nc1ccnn1C1CCN(C/C=C/c2ccccc2)CC1)c1ccccc1,-2.6,-1.5,.,-3.3,20.4,0.3,5.1,4.4,-1.2,7.4
CCOC(=O)N1CCC(N2Cc3cccc(C(=O)Nc4ccc(S(=O)(=O)N(CC)CC)cc4)c3C2=O)CC1,-0.8,0.9,.,-12.4,-8.4,-0.5,-14.1,-4.1,-8.2,0.6
Cc1ccc(S(=O)(=O)NCCNC(=O)c2ccccc2)cc1,-3.9,-0.3,?,-1.5,3.4,-3.9,.,.,.,.
CCOc1ccc(S(=O)(=O)Nc2ccc(C(=O)NCc3ccncc3)cc2)cc1,-5.5,-0.7,-3.9%,.,.,.,-7.5,-8.1,2.1,-0.5
O=C(NCC(=O)N1CCCC(C(F)(F)F)C1)c1ccccc1F (centres undefined),1.3,-1.0,-3.0%,3.1,-5.2,2.2,4.6,9.3,-0.9,-0.8
CCOc1ccccc1OCCCCOc1ccccc1F,6.1,0.5,3.6%,-0.6,11.3,2.4,.,.,.,-5.5
CC(=O)Nc1ccc(NC(=O)c2ccc(COc3ccc(C)cc3)o2)cc1,-1.1,-0.3,.,-5.8,-13.2,3.8,13.0,17.0,3.9,-3.1
Cc1cc(C)nc(N(C#N)CCOc2ccccc2)n1,-3.8,0.2,4.8%,-18.3,7.7,5.9,.,.,.,.
CCOC(=O)CNC(=O)c1ccc2[nH]c3c(c2c1)CCCC3,3.5,-0.1,6.9%,44.9,-1.4,18.1*,-2.5,-0.2,-0.7,?
COc1ccc(/C=C2\SC(=S)N(CCC(=O)Nc3cccc(C(=O)O)c3)C2=O)cc1,.,-1.3,-7.3%,0.6,-7.3,3.5,6.9,-3.7,0.0,-5.6
Cc1c(Cc2c(C)n(C)n(-c3ccccc3)c2=O)c(=O)n(-c2ccccc2)n1C,1.8,0.3,.,-6.7,-15.3,-1.2,.,.,.,.
CCOC(=O)C1CCCN(C(=O)Nc2cccc(Cl)c2)C1 (centres undefined),2.3,-0.9,-4.5%,-6.6,-5.1,0.0,.,.,.,.
CCC(C)C(NC(=O)CCC(=O)OCC(=O)[C@@]1(O)CCC2[C@@H]3CCC4=CC(=O)C=C[C@]4(C)C3[C@@H](O)C[C@@]21C)C(=O)O (some centres undefined),6.2,-0.3,-3.5%,4.6,-2.3,-1.2,4.5,10.7,-1.2,-0.9
CCCn1nc(C(=O)Oc2ccc3c(C)cc(=O)oc3c2)c2ccccc2c1=O,-4.7,-0.4,0.3%,14.8,-20.4,6.5,5.1,-4.1,1.4,5.7
Cc1ccc(Nc2nc(-c3sc(C)nc3C)cs2)cc1,44.2,-0.2,-5.1%,3.5,5.8,5.5,-0.5,6.0,2.3,-2.4
C[C@H](NC(=O)c1nc[nH]c1C(=O)N[C@@H](Cc1ccccc1)C(=O)OCc1ccccc1)C(=O)OC(C)(C)C,-4.8,-0.6,.,5.8,6.2,-4.8,6.0,5.4,10.6,4.8
CC(C)c1nc(SCC(=O)N2c3ccccc3CC2C)c2ccccc2n1 (centres undefined),-1.8,0.3,23.0%,3.1,38.2,-2.6,-23.6,-24.6,-3.7,-38.7
COc1ccc(Cl)cc1CSc1ncn[nH]1,-5.4,0.0,?,-4.0,3.0,0.3,-13.4,-27.8,-1.5,-1.5
O=C(Nc1ccc(COc2ccccc2)cc1)c1cccc([N+](=O)[O-])c1,4.6,-1.9,.,1.1,-10.7,-1.5,16.6,11.8,-2.4,-0.1

Screening data (PubChem BioAssay)

These rows are one share of the data; count on the stated rates, not on these rows.
